# Screening results as filed in PubChem BioAssay.
# Six1-Eya2 inh = Six1/Eya2 interaction inhibition; Q15475+O00167; AlphaScreen GST-Six1/His-Eya2 binding, biochemical; hits give low values; control for the full effect not named in the record; activity change, % (test concentration not listed); hit rate 0.56% among 360,000; in the data active = activity change below about -65%; inconclusive = about -30% to -65%; inactive = above about -30%; also: % is scaled to controls: 0 for no effect and ±100 for the full control effect; compound concentration not given in the record
#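 AlphaScreen with GST-Six1 and His-Eya2 (5X mix: 250 nM and 500 nM), glutathione donor and nickel acceptor beads; buffer 50 mM Tris pH 8.0, 300 mM NaCl, 1 mM TCEP; 1 h at 37 C in the dark.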
# Sfp inh = Sfp phosphopantetheinyl transferase inhibition; Q9F4F7; Biochemical Sfp PPTase activity, qHTS; Potency, µM, inactives show max response, negative = inhibition, hits mostly inhibitors; hit rate 3.5% among 310,000; AID 1490; active = well fitted inhibition curve with a large enough effect; inconclusive = small, poorly fitted or top-dose-only effect, or another doubt; inactive = no such curve, though single readings can be large or run the other way;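 also: the enzyme is Sfp with the accession as filed and its product quenches rhodamine fluorescence; potency is read from the fitted curve at half-maximal effect; 0% = enzyme reaction without inhibitor and -100% = no enzyme wells; top concentration of the series not given in the record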
#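 Sfp 15 nM + cpd, 15 min RT; start w/ rhodamine-CoA 5 uM, BHQ-2-YbbR 12.5 uM (final); 50 mM Hepes pH 7.6, 10 mM MgCl2, 0.01% NP-40, 0.01% BSA; read 525/598 nm at 0 and 30 min.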
# PINK1 modulator = modulators of PINK1 expression; PINK1 immunofluorescence, high-content cytometry, 24 h; Potency, µM (highest dose often 76.6 µM), without a hit: at the highest dose activation (PINK1 increase), most hits filed as activators; hit rate 0.2% among 410,000; AID 624263; active = well fitted activation curve with a large enough effect; inconclusive = small, poorly fitted or top-dose-only effect; inactive = flat fitted curve, though single readings scatter; cell line not stated here;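 also: potency is read from the fitted curve at half-maximal effect; % of control where 0% means no effect; nearly all actives have a fitted effect of over 65% in size; a mitochondrial uncoupler was the plate control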
#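 A stable cell line was treated with compounds at 5 concentrations for 24 hours, with CCCP as control. PINK1 levels and mitochondrial localization were measured by immunofluorescence with mitochondrial, cell and nuclear markers after fixation, read by laser-scanning cytometry.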
# D2 potentiator = positive allosteric modulators of human D2 dopamine receptor; potentiation, % (test concentration not listed); DiscoveRx D2 beta-arrestin cells, luminescence, 90 min; 100% = 57 uM dopamine signal; P14416; hit rate 0.23% among 360,000; active = potentiation of 50% or more; inconclusive = 30% to 50%; inactive = 30% or less;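 also: compound concentration not given in the record; tested on top of an EC20 dose of dopamine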
#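 D2 cells co-treated with compound plus 50 nM dopamine (EC20) for 90 min at 37 deg C to detect potentiation. Beta-arrestin recruitment was read as enzyme-fragment luminescence after 1 h at ambient temperature. Full response was set by 57 uM dopamine.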
# TRPV1 potentiator = enhances activation of the human vanilloid receptor TRPV1 | hit rate 0.02% among 320,000 | AID 540277 | Q8NER1 | potentiation, % at 8.33 µM | TRPV1-expressing cells, Fluo-8 calcium influx, capsaicin EC20 potentiation; host cell line not named in the record; control for the full effect not named in the record; active means potentiation above 80%; inconclusive means 30% to 80%; inactive means below 30%; also: 0% is about no effect
# Target sequence (Q8NER1 whole entry, looked up): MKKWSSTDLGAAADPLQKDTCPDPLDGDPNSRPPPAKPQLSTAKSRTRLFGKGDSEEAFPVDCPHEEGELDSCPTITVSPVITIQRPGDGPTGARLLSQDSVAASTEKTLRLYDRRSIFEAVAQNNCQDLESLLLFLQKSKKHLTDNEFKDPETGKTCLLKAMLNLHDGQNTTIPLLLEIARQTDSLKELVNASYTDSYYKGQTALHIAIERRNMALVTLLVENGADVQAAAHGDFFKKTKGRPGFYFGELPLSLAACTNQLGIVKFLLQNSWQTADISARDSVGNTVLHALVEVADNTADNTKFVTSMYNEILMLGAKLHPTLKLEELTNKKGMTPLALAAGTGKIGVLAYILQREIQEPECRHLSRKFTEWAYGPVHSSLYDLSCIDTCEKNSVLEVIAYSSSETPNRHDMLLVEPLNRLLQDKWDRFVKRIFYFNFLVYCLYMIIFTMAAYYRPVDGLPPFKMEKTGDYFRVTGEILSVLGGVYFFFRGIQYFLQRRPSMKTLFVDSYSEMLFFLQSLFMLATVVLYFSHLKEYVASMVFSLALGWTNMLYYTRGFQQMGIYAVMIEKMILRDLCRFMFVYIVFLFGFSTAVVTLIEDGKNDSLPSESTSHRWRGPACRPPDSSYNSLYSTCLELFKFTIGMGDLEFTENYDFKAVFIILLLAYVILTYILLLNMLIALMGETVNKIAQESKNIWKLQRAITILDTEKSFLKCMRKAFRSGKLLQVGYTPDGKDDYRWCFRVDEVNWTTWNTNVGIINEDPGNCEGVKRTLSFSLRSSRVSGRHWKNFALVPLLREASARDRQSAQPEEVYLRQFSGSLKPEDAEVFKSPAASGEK
#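 TRPV1-expressing cells were cultured overnight at 35.5C and loaded with Fluo-8 calcium dye for 40 to 90 min at room temperature. After a 10 s baseline, compound was added and calcium influx was read kinetically for 3 min (ex 480/em 520 nm).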
# D2 ag = agonists of human D2 dopamine receptor (beta-arrestin). P14416. DiscoveRx PathHunter D2 beta-arrestin, luminescence, 90 min; 100% = 57 uM dopamine signal. activation, % (test concentration not listed). hit rate 0.084% among 360,000. AID 624465; in the data active = activation above about 40%; inconclusive = about 15% to 40%; inactive = below about 15%; also: compound concentration not given in the record; the text of the record calls up to 30% inactive
#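 DiscoveRx PathHunter D2 beta-arrestin cells (2,100/well) attached overnight, then compound-stimulated 90 min at 37 C in HBSS/10 mM HEPES/0.1% Tween-20 buffer; beta-galactosidase complementation read by luminescence after 1 h at ambient temperature. Dopamine 57 uM final (EC100) as control.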
# CtBP-E1A blk = CtBP/E1A binding inhibition; AlphaScreen GST-E1A/His-CtBP binding, 1536-well; hits give low values; control for the full effect not named in the record; hit rate 0.49% among 340,000; activity change, % (test concentration not listed); AID 651724; in the data active means activity change below about -65%; inconclusive means about -30% to -65%; inactive means above about -30%; also: % is scaled to controls: 0 for no effect and ±100 for the full control effect; compound concentration not given in the record
#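 GST-E1A and His-tagged CtBP (125 nM each as 5X stock) were preincubated with pin-transferred compound for 2 h at 37 °C in the dark, then glutathione donor and nickel acceptor beads were added for 1 h before AlphaScreen reading.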
# * hit, by the source's call; ? = inconclusive; · = no result given; & = joins results of further samples; [ ] = remark or other dose.
Molecule | Six1-Eya2 inh | Sfp inh | PINK1 modulator | D2 potentiator | TRPV1 potentiator | D2 ag | CtBP-E1A blk
CCN1CCN(c2c(/C=C3\SC(=S)N(Cc4ccco4)C3=O)c(C)c(C#N)c(=O)n2C)CC1 | -7 | 25µM* | 16% | -10 | ? | -5.6 | -4
CC(NC(=O)Nc1cccc(F)c1)c1ccc2c(c1)OCO2 (stereo not given) | 9 | 4% | 0.6% | -41 | -2 | -3.4 | -10
Cc1ccc(NC(=O)CCc2c(C)nn(-c3ccc(N4CCOCC4)nn3)c2C)cc1 | -1 | 12% | 2.3% | -2 | 4 | 3.8 | 1
O=C(/C=N/NC(=O)c1ccccc1Br)c1ccccc1 | -3 | -14% | 3.6% | -5 | -4 | -2.3 | 18
O=C(COC(=O)c1ccccc1Sc1ccc(C(F)(F)F)cc1[N+](=O)[O-])NC(=O)NC1CCCC1 | -13 | 7% | 4.0% | -7 | -17 | -1.4 | ·
NC(=O)c1ccc(-c2ccccc2F)cc1 | 1 | 14% | 2.7% | -15 | -10 | -5.0 | ·
O=C(NC1CCCC1)c1c(O)nc2sccn2c1=O | 2 | · | 1.0% | -8 | 16 | -3.2 | 3
CCS(=O)(=O)N1Cc2ccccc2CC1C(=O)Nc1nc(C)cs1 (stereo not given) | 2 | 14% | -1.4% | -18 | 7 | 5.2 | 12
COc1ccc(OCC(=O)OC(C)CN2CCCCC2)cc1 (stereo not given) | -6 | -4% | -0.2% | 1 | -1 | 1.9 | -1
O=C(CC1C[C@H](C(=O)N2CCOCC2)[C@@]2(CCC3CCCC3)c3[nH]c4ccccc4c3CCN2C1=O)NCCCn1ccnc1 (stereo not given in full) | -2 | · | 0.0% | · | · | 0.4 | -3
CCOC(=O)C1CCCN(C(=O)c2cc(S(=O)(=O)N(C)C)ccc2N2CCCC2)C1 (stereo not given) | 9 | · | -0.6% | 4 | -7 | -4.9 | -12
COc1ccccc1Nc1cc(N2CCOCC2)c2nonc2c1[N+](=O)[O-] | 4 | 4% | 4.3% | -3 | 2 | -1.2 | -8
COc1cc(NS(=O)(=O)c2ccc(NC(=O)COc3cccc(C)c3)cc2)nc(OC)n1 | -2 | -22% | -0.3% | -1 | -2 | -0.3 | -2
CCCOc1ccc(C(=O)NNC(=S)NC(=O)CC)cc1 | -5 | -26% | -30%[38.3 µM] | -18 | -13 | -6.4 | -4
Cc1coc(C)c1C(=O)Nc1ccc2ccccc2c1 | -7 | 6% | 3.3% | -10 | -7 | -1.6 | -8
O=c1n2c(c(O)n1C1CCCCC1)C(c1ccccc1)=Nc1ccccc1C2 | -17 | · | 5.9% | 1 | · | 3.1 | -17
O=C(NCc1ccccn1)c1ccc2nc(C3CCCCC3)oc2c1 | -1 | 12% | -0.7% | -3 | 5 | -0.7 | 7
O=C(c1ccc(Cn2cc([N+](=O)[O-])cn2)o1)N1CCCCCC1 | 4 | 11% | 0.0% | -8 | -4 | -4.2 | 6
CCOC(=O)c1c2n(c3c(NCc4ccccc4)ncnc13)CCCC2 | 0 | 13% | 3.8% | -37 | 28 | 12 | ?
COc1cc(/C=C/C(=O)OCC(=O)Nc2ccc(C)c(S(=O)(=O)N3CCCCC3)c2)ccc1O | -15 | 13% | 13% | -16 | 7 | -3.6 | 3

# 2 entries from above, reformatted.
COc1ccc(OCC(=O)OC(C)CN2CCCCC2)cc1 (stereo not given)
- Six1-Eya2 inh: -6
- Sfp inh: -4%
- PINK1 modulator: -0.2%
- D2 potentiator: 1
- TRPV1 potentiator: -1
- D2 ag: 1.9
- CtBP-E1A blk: -1

CC(NC(=O)Nc1cccc(F)c1)c1ccc2c(c1)OCO2 (stereo not given)
- Six1-Eya2 inh: 9
- Sfp inh: 4%
- PINK1 modulator: 0.6%
- D2 potentiator: -41
- TRPV1 potentiator: -2
- D2 ag: -3.4
- CtBP-E1A blk: -10

# Next part
Molecule | Six1-Eya2 inh | Sfp inh | PINK1 modulator | D2 potentiator | TRPV1 potentiator | D2 ag | CtBP-E1A blk
O=c1cc(N2CCCCC2)c(-c2ccccc2)nn1Cc1cccc(F)c1 | -5 | -23% | 1.4% | -15 | -4 | -6.4 | ·
CC(=O)Nc1ccc(S(=O)(=O)Nc2nc3ccc([N+](=O)[O-])cc3s2)cc1 | -5 | 14% | -1.2% | -11 | 10 | -0.5 | ·
COc1ccc2[nH]c(O)c(N=O)c2c1 | 0 | 2% | -1.4% | -13 | 5 | -1.0 | 8
CN(C)c1ncnc2c1ncn2CCn1cnc2c(N(C)C)ncnc21 | 10 | · | 2.8% | -4 | · | -1.0 | 2
COC(=O)c1ccc(/C=C/c2c(-c3ccsc3)oc3ccc(N4CCOCC4)cc23)cc1 | 0 | 2% | 9.9% | -12 | -7 | -3.7 | 3
O=C1CCCC(O)=C1N=Nc1ccc(S(=O)(=O)N2CCOCC2)cc1 | 18 | -19% | 0.3% | -10 | -1 | -7.2 | 0
CCc1ccc(NC(=O)CCc2nnc3ccc(N4CCCC4)nn23)cc1 | 0 | 10% | -1.1% | -3 | -2 | 1.7 | ·
COc1cccc(C(=O)C2CCCN(C(=O)c3ccccn3)C2)c1 (stereo not given) | 0 | 15% | -0.1% | -3 | 3 | 8.0 | 8
COC(=O)c1cc2c(cc1N)OCCO2 | -2 | ? | -1.4% | -8 | 4 | -2.8 | -16
CCOC(=O)COc1ccsc1C(=O)OC | 1 | 14% | · | -1 | 3 | -1.4 | 8
CC(=O)c1cccc(NC(=O)Cn2cnc(S(=O)(=O)N3CCCC3)c2)c1 | 4 | 2% | -0.6% | -11 | -1 | -1.1 | 1
O=C(O)CC(C(=O)OC1CCCCC1)N1CCOCC1 (stereo not given) | -5 | 16% | -2.0%[38.3 µM] | 1 | -29 | 1.1 | -15
CCOC(=O)C(NC(=O)c1ccccc1)(N1CCOCC1)C(F)(F)F (stereo not given) | 14 | -1% | -1.3% | -1 | 27 | -2.4 | 6
O=C(CCN1C(=O)/C(=C\C=C\c2ccccc2)SC1=S)Nc1ccc(C(=O)O)cc1 | -13 | ? | 6.8% | -2 | -4 | 0.6 | ?
O=C(NC(=S)Nc1nc(-c2cccc([N+](=O)[O-])c2)cs1)c1cc(Cl)ccc1Cl | 4 | -20% | ? | -4 | 9 | -3.5 | -15
O=C(Nc1ccccc1C(=O)NC1CC1)c1ccccc1F | 15 | · | 0.1% | -5 | · | -2.1 | ·
Cn1c(C(=O)O)cc2cc(Oc3ccccc3)ccc21 | -2 | 1% | 1.2% | -3 | -1 | 0.3 | -2
Cc1nn(-c2ccc(F)cc2)c(Cl)c1/C=C(/CC(=O)O)c1nc2ccccc2s1 | -7 | · | -0.9% | -1 | · | 5.1 | 0
CCOc1ccc(N2C(=O)C(Cl)=C(N3CCOCC3)C2=O)cc1 | 1 | -10% | -0.7% | -3 | 2 | 5.5 | -4
CC1(C(=O)Nc2cccc(Oc3ccccc3)c2)CCN1Cc1cc2ccccc2o1 (stereo not given) | -1 | · | 4.3% | 5 | · | -1.1 | 12

# Next entries
# Order of results – Six1-Eya2 inh	Sfp inh	PINK1 modulator	D2 potentiator	TRPV1 potentiator	D2 ag	CtBP-E1A blk
C=CCc1cc(/C=C2/NC(=O)N(CC(=O)OC)C2=O)cc(OC)c1O
  -7	16%	-0.4%	2	3	5.2	-3
N/C(=N\OC(=O)c1ccccc1Cl)c1ccc(Cl)cc1
  4	1%	0.0%	26	5	?	0
COCOc1cccc(CN2CCC2(C)C(=O)Nc2ccc(C)c(O)c2)c1 (stereo not given)
  -3	·	0.8%	0	·	-2.9	-3
Cc1ccc(Nc2nc(N)nc(CN3CCN(C(=O)c4ccco4)CC3)n2)cc1Cl
  -9	-10%	-2.9%	14	2	?	-12
CN1C(=O)C(CC(=O)Nc2ccc(F)cc2)N(Cc2ccco2)C1=S (stereo not given)
  4	-7%	2.4%	-17	-2	-6.2	0
CC(C)(C)n1nnnc1C(c1ccc(C(F)(F)F)cc1)N(Cc1ccccc1)Cc1ccco1 (stereo not given)
  -6	11%	2.0%	-13	7	-3.6	-1
COC(=O)C(CSCc1ccccc1)NC(=O)CSc1nc(C)cc(=O)[nH]1 (stereo not given)
  8	-10%	-1.0%	-8	10	-0.6	1
CCN(CC)CCNC(=O)c1ccc(NC(=O)c2cccc(S(=O)(=O)N3CCc4ccccc43)c2)cc1
  -3	·	-2.5%	-29	-6	-0.4	-1
Nc1cc([N+](=O)[O-])ccc1Nc1ccc(O)cc1
  ?	56µM*	1.2%	-17	4	1.0	·
Cc1ccc(S(=O)(=O)N(C)C)cc1NC(=S)N1CCc2ccccc21
  -6	9%	0.4%	-29	1	-6.0	4
COC(=O)[C@H]1C[C@@H]1[C@H](NS(=O)(=O)c1ccc2ccccc2c1)c1ccccc1
  4	-13%&2%	1.3%	10	10	-2.1	1
CC(=O)c1ccc(N2CCN(S(=O)(=O)c3cccc(S(=O)(=O)N4CCOCC4)c3)CC2)cc1
  0	-5%	-0.6%	-4	-3	-2.2	3
Nc1ccccc1-c1nc2ccccc2s1
  56	-1%	6.0%	-7	-1	0.0	63
CSc1cccc(CNC(=O)CC2C(=O)NCCN2CC(C)(C)C)c1 (stereo not given)
  -5	-4%	-1.0%	-9	5	-2.5	1
CCOc1ccc(N(CC(=O)Nc2ccccc2C)S(=O)(=O)c2c(C)[nH]c(=O)[nH]c2=O)cc1
  -5	14%	0.7%	-13	0	-3.0	-17
Cn1c(N)c(C(=O)COC(=O)c2ccccc2C(=O)c2ccc(Cl)c([N+](=O)[O-])c2)c(=O)n(C)c1=O
  -7	·	-1.7%	-37	·	-6.3	6
O=[N+]([O-])c1cccc(N=Nc2ccc(O)cc2O)c1
  -15	·	?	-12	·	-2.5	-13
O=C(NCc1ccccc1)c1ccccc1
  8	·	1.8%	-2	·	2.6	3
CCCCOc1ccc(N2C(N)=NC(N)=NC23CCCCC3)cc1
  6	1%	1.2%	-3	29	1.3	·
O=C(Cc1c(Sc2ccccc2)c2ccccc2n1Cc1ccccc1)NCCO
  1	-10%	-1.1%	-7	10	3.1	-1
Cn1ncc([N+](=O)[O-])c1C(=O)N/N=C/c1cccc([N+](=O)[O-])c1
  11	7%	1.4%	-10	-1	-6.6	9
